Source: PubChem
Calb FLC: C. albicans growth modulation with fluconazole; C. albicans CaCi-2 (fluconazole-resistant clinical isolate) + fluconazole, Alamar Blue growth, 48 h; growth inhibition, % (test concentration not listed); 300,000 tested, 0.57% active;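 active means most replicates above 75%; inconclusive means exactly half above 75%; inactive means most below 75%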;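 further: all wells also contain fluconazole at 8 µg/ml as a sub-toxic cotreatment; 0% = median of DMSO wells and 100% = median of geldanamycin control wells; wells of about 8 µL received 7.5 nL stock; the first replicate is given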
Beta apoptosis: blocks beta cell apoptosis; INS-1E cytokine-induced death, ATP luminescence, 48 h; percent of positive-control rescue, neutral wells zero; protection from apoptosis, % (concentration not given with the values); 300,000 tested, 0.8% active; AID 435005;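 active means all replicates at 75% or more, or half of them and the mean; inconclusive means half reach 75% but not the mean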;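 further: 0% = cytokine-treated negative control wells and 100% = positive control rescue; higher means more ATP so stronger rescue from cytokine killing; wells of about 40 µL received 100 nL stock; the first replicate is given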
Bfl-1 A1 inh: inhibitors of the anti-apoptotic protein A1, read as caspase activation | MEF A1-2A-BIM cells, Caspase-Glo 3/7 luminescence, 3 h; percent of clofoctol response, vehicle zero | caspase activation, % (concentration not given with the values) | 330,000 tested, 0.066% active;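 active means over half of replicate activation scores above 10%, or exactly half above 10 with the replicate mean above 10; inconclusive means replicate mean below 10 yet half the replicates above 10; inactive means over half of replicates below 10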;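 further: wells of about 30 µL received 50 nL stock; many hits fall short of the cut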
AF4-AF9 inh: blocks AF4 peptide binding to human AF9; P42568; AlphaScreen, biotin-AF4 peptide binding to FLAG-AF9; 350,000 tested, 0.47% active; inhibition, % at 10 µM;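 active means every replicate reaching a set inhibition limit, whatever the replicate mean, cut at about 25% in these data; inconclusive means mean inhibition reaches that limit but some replicates miss it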;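 further: 0% = plate neutral control median and 100% = total signal loss; the record names both 10 and 1 µM as test concentration; the first replicate is given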
Target sequence (P42568 whole entry, looked up): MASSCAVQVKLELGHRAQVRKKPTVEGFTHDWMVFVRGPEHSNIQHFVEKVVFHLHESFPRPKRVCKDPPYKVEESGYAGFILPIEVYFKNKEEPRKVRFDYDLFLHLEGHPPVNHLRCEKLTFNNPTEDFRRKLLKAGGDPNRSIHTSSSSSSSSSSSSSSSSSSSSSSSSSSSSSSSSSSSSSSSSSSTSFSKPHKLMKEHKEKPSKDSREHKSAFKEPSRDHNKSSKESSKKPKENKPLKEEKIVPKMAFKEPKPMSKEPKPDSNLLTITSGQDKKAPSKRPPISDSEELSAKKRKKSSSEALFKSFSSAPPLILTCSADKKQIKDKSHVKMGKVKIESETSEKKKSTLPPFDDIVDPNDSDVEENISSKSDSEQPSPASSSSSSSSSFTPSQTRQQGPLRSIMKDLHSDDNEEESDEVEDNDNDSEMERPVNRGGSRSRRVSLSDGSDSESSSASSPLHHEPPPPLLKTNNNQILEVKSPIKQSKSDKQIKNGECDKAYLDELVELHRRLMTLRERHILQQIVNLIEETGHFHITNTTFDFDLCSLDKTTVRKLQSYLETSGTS
T cruzi inh: blocks replication of Trypanosoma cruzi | inhibition, % (no concentration beside the values) | 300,000 tested, 1.4% active | T. cruzi beta-gal in NIH3T3, luminescence, 90 h;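 active means mean inhibition across valid replicates above about 55%, limit read from the data; inconclusive means mean below that limit but half or more replicates reach it; inactive means mean below it, under half of replicates reach it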;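 further: signal also drops with host cell toxicity which is not excluded here; 0% = plate median of DMSO wells and 100% = zero luminescence signal; higher percent means less beta-gal luminescence so fewer parasites; stock transfer was 50 nL into about 50 µL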
rRNA inh HTS: inhibitors of bacterial rRNA selective over humanized ribosomes. E. coli WT GFP vs humanized-ribosome RFP mutants, fluorescence, 24 h; hits give low values; DMSO median 0, no signal -100. 350,000 tested, 1.6% active. GFP signal change (wild-type ribosome), % (test concentration not listed). AID 720706;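 active means significant combined selectivity score with lowered wild-type GFP, culture density cut under 30%, mutant RFP and density less affected; inactive means any of these conditions unmet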; further: one replicate is shown; some compounds called inactive have numbers as strong as hits
RanGTP-Imp inh: inhibitors of RanGTP-importin-beta interaction, primary screen, biochemical, FRET, CFP-Ran, YFP-importin-beta, homogeneous. cell-free CFP-Ran/YFP-importin-beta FRET ratio. inhibition, % (test concentration not listed). 300,000 tested, 1.1% active. AID 2216;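 active means most replicates above 15%; inconclusive means exactly half above 15%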;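 further: 0% = DMSO wells and 100% = Ran loaded with GDP instead of GTP; wells of about 40 µL received 100 nL stock; the first replicate is given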
Vif A3G: inhibitors of Vif binding to APOBEC3G peptide, primary screen, biochemical, TR-FRET, GST-Vif 1-94, biotin-A3G peptide, dose response retest (AID 1117319) | one-dose inhibition, %; IC50 in µM for titrated hits | TR-FRET GST-Vif / biotin-A3G peptide binding; higher % means a stronger effect; test concentration not given here; strong numbers were not always called active | 260,000 tested, 0.57% active;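 active means above the screen mean plus three standard deviations and confirmed in dose response; inconclusive means results disagree or hit not tested in dose response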;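 further: Vif residues 1-94 fused to GST binding biotinylated APOBEC3G peptide 110-148; 0% = full assay without inhibitor and 100% = GST in place of GST-Vif; retest series ran down from 100 µM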
rRNA inh HTS OD600: second read-out of rRNA inh HTS, no call of its own (marks repeat the call); OD600 change, %; measured here: OD600 growth;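 optical density of the mix in the first replicate; 0 = DMSO median and -100 = no signal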
rRNA inh HTS RFP: second read-out of rRNA inh HTS, no call of its own (marks repeat the call); RFP signal change, %; measured here: RFP humanized mutant strains;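 first replicate; 0 = DMSO median and -100 = no signal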
* hit, by the source's call; ? = inconclusive; · = not tested or not shown. A portion of the library; rates above refer to the full screens.

Start of the data: the first 5 compounds (preview)
mol	Calb FLC	Beta apoptosis	Bfl-1 A1 inh	AF4-AF9 inh	T cruzi inh	rRNA inh HTS	rRNA inh HTS OD600	rRNA inh HTS RFP	RanGTP-Imp inh	Vif A3G
Cc1cc(C(=O)Nc2ccccc2C(F)(F)F)no1	14.6	-6.7	0.8	·	-3.4	·	·	·	1.5	-2.1%
O=c1[nH]c2cc3c(cc2cc1C(c1nnnn1CC1CCCO1)N1CCCCCC1)OCO3 (stereo unspecified)	-1.9	·	·	·	17.7	·	·	·	-0.1	?
N#Cc1c(F)cccc1NCc1cccnc1	1.9	-6.0	-0.7	-0.2	-9.7	9.5	4.4	0.0	2.3	0.9%
CC(=O)N(c1ccccc1)C(C)c1nc(C#N)c(C#N)nc1C (stereo unspecified)	13.4	-4.0	0.3	4.5	2.5	5.0	11.8	2.3	-5.0	3.2%
O=C(O)CCCC(=O)Nc1ccccc1C(=O)O	-10.7	0.5	-1.9	·	-20.9	·	·	·	2.9	-4.9%

This part in full, previewed entries included:
mol	Calb FLC	Beta apoptosis	Bfl-1 A1 inh	AF4-AF9 inh	T cruzi inh	rRNA inh HTS	rRNA inh HTS OD600	rRNA inh HTS RFP	RanGTP-Imp inh	Vif A3G
Cc1cc(C(=O)Nc2ccccc2C(F)(F)F)no1	14.6	-6.7	0.8	·	-3.4	·	·	·	1.5	-2.1%
O=c1[nH]c2cc3c(cc2cc1C(c1nnnn1CC1CCCO1)N1CCCCCC1)OCO3 (stereo unspecified)	-1.9	·	·	·	17.7	·	·	·	-0.1	?
N#Cc1c(F)cccc1NCc1cccnc1	1.9	-6.0	-0.7	-0.2	-9.7	9.5	4.4	0.0	2.3	0.9%
CC(=O)N(c1ccccc1)C(C)c1nc(C#N)c(C#N)nc1C (stereo unspecified)	13.4	-4.0	0.3	4.5	2.5	5.0	11.8	2.3	-5.0	3.2%
O=C(O)CCCC(=O)Nc1ccccc1C(=O)O	-10.7	0.5	-1.9	·	-20.9	·	·	·	2.9	-4.9%
O=C(OCC(=O)N1CCCCCC1)c1ccccc1Br	·	-1.0	-5.2	-0.7	·	-10.3	-5.0	-5.0	·	3.9%
CCSc1ccccc1C(=O)NCc1ccc(S(N)(=O)=O)cc1	-0.5	0.3	0.5	·	-17.3	·	·	·	7.1	-2.5%
CC1C(=O)CC(c2ccc([N+](=O)[O-])cc2)NC1c1ccc([N+](=O)[O-])cc1 (stereo unspecified)	15.7	4.4	0.1	5.4	46.1	12.2	-6.4	1.0	7.9	21.2%
COc1ccc(C2=NCC(CSc3nnnn3C)S2)cc1 (stereo unspecified)	·	-3.7	0.7	·	-3.5	·	·	·	-4.0	-1.6%
C=CCn1c(SCC(=O)Nc2ccc3c(c2)OCCO3)nnc1-c1ccccn1	-1.3	8.5	-0.2	·	7.3	·	·	·	0.3	2.2%
CCCCN1c2cc(C)c(O)cc2C(C(=O)OCC)C1C (stereo unspecified)	14.3	5.3	0.7	·	21.1	·	·	·	1.7	?
CC(=O)c1cc(C(c2csc(C(C)=O)c2)c2csc(C(C)=O)c2)cs1	-5.8	6.1	0.8	·	-6.4	·	·	·	6.9	-8.6%
CCOc1cc(/C=C(\C(=O)O)c2ccc(S(=O)(=O)N3CCCC3)s2)ccc1OC	·	-6.6	-0.7	-2.5	·	·	·	·	·	0.6%
O=C(CCc1nc(-c2ccccc2F)no1)Nc1ccc(Oc2ccccc2)cc1	-1.1	0.7	?	·	0.7	·	·	·	-0.5	22.8%
N#Cc1ccc(NC(=O)Cn2cnc(S(=O)(=O)N3CCc4ccccc43)c2)cc1	-2.7	-3.1	0.9	0.3	-3.8	-8.3	-6.6	0.0	2.0	0.6%
N=C1C(c2ccccc2)=C(O)CN1c1cccc(S(N)(=O)=O)c1	-1.2	-2.6	-0.2	-1.7	-8.6	7.2	2.2	1.9	0.3	3.5%
CC(CCc1ccccc1)NC(=O)CN1CCOc2ccccc21 (stereo unspecified)	7.6	-4.2	-0.9	-16.6	14.7	-2.1	1.2	4.9	1.5	-5.5%
CN(C)CCNc1ccc(Cl)cc1[N+](=O)[O-]	37.9	-5.2	0.2	4.7	34.8	0.9	8.5	-6.3	5.1	2.8%
Cn1c(=O)c2c(SCC(=O)Nc3cccc(F)c3)nc(-c3ccco3)nc2n(C)c1=O	6.8	4.8	1.0	-1.9	-19.3	2.6	2.2	-0.6	0.7	·
COc1ccccc1NC(=O)C1CCCCN1S(=O)(=O)c1ccc(F)cc1 (stereo unspecified)	-3.3	1.9	-0.3	·	-9.0	·	·	·	3.9	-4.2%
Cc1ccc(N2CC(=O)Nc3c(oc4nc(-c5ccccc5)cc(C)c34)C2=O)cc1	-0.7	0.6	-1.2	-0.5	8.2	13.2	4.9	-2.3	3.6	-6.4%
CCOC(=O)C1=C(C)Nc2nc(SCc3cccnc3)nn2C1c1ccc(OC)cc1 (stereo unspecified)	-3.0	-0.4	-0.6	-2.7	27.9	2.2	6.0	-1.7	1.7	1.0%
O=C(CSc1nnc(-c2ccccc2)o1)NCC1CCCCC1	-53.5	·	·	·	6.1	·	·	·	-1.9	-4.0%
COc1cccc(-n2cnc3sc(C)c(C)c3c2=O)c1	6.0	-9.9	-0.6	·	7.9	·	·	·	5.7	-5.4%
COc1ccc(-c2c(C#N)c(N)n(N)c(=O)c2C#N)cc1Cl	2.2	-3.3	0.4	-2.2	-11.0	0.8	-10.9	-0.4	3.6	·
O=C(NCc1ccco1)C12CN(Cc3ccccc3)CC1C(c1cccc([N+](=O)[O-])c1)=NO2 (stereo unspecified)	-7.4	-3.0	-0.3	8.8	12.1	13.6	7.1	5.5	0.7	13.2%
COc1ccc(S(=O)(=O)c2ccc(O)cc2)cc1	-1.1	3.4	0.4	·	-13.9	·	·	·	-0.5	-2.5%
O=C(COC(=O)CCN1C(=O)c2cccc([N+](=O)[O-])c2C1=O)NC1CCS(=O)(=O)C1 (stereo unspecified)	32.5	-17.3	0.9	-7.3	-0.2	20.9	-0.9	1.4	0.1	0.5%
COc1ccc(S(=O)(=O)N2CCOC2CNC(=O)C(=O)NCc2ccncc2)cc1 (stereo unspecified)	3.2	1.4	-0.7	-0.9	4.8	-0.1	15.6	-0.6	?	·
O=C(COc1ccc(S(=O)(=O)N2CCCC2)cc1)NCc1cccnc1	-0.8	8.4	0.3	-3.7	-5.6	6.7	7.8	-0.6	-1.3	·
Cc1coc2c(C)c3oc(=O)c(CCC(=O)NCCCn4ccnc4)c(C)c3cc12	10.7	2.5	0.5	0.0	14.7	·	·	·	3.3	·
Cc1ccc(NS(=O)(=O)c2cc(Br)cnc2N)c(Cl)c1	0.5	1.1	0.7	-2.5	-10.5	-41.0	-55.2	-7.4	5.1	·
Cc1ccc(C(=O)NNC(=O)CSc2nnc3c(n2)[nH]c2ccc(F)cc23)cc1	1.3	2.1	-0.4	·	9.9	·	·	·	-3.7	11.1%
O=C(O)CCC(=O)Nc1ccc(/C=C/C(=O)C2CC2)cc1	0.1	-5.1	0.1	-0.1	-2.6	1.7	2.1	-3.6	-3.3	0.8%
CN(CC1CCCN(CCc2cccc(C(F)(F)F)c2)C1)C(=O)c1cc2ccccc2o1 (stereo unspecified)	10.7	·	·	5.1	65.1*	-3.4	-43.2	4.2	1.7	·
Cc1cc(S(=O)(=O)NCc2ccccc2)ccc1OCC(=O)Nc1cccc([N+](=O)[O-])c1	-3.4	2.3	0.2	0.0	-11.5	-17.8	-8.0	-6.4	-1.0	-1.4%
CCCCOP(=O)(c1ccc(N(C)C)cc1)C(O)c1cc(OC)ccc1OC (stereo unspecified)	31.1	-8.4	0.9	-7.4	-3.4	5.9	3.0	2.9	2.5	-2.8%
COC(=O)CN1C(=O)[C@H]2[C@@H](c3ccc(C)o3)N3C(=O)CN(CC4CC4)C(=O)[C@@]3(C)[C@H]2C1=O	-2.0	-3.6	1.4	-17.5	-2.7	·	·	·	-0.4	·
Cn1c(NC(=O)c2cccc(C(F)(F)F)c2)cc(=O)n(C)c1=O	-10.7	-1.1	0.4	2.7	-4.3	2.7	3.2	-0.3	3.1	4.2%
Cc1nc(=O)c(-c2ccccc2)c(C)n1-c1ccc(C(=O)O)cc1	-6.8	-4.2	0.4	·	3.0	·	·	·	-1.4	4.4%
COc1ccccc1CCNC(=O)c1cnn2c(C(F)F)cc(C)nc12	-5.0	-1.0	0.6	-10.9	7.9	-7.8	-7.6	-0.7	?	-6.5%
COc1ccc(N(CC(=O)NCCSc2ccccn2)S(=O)(=O)c2ccc(C)cc2)cc1OC	-1.7	-1.6	-0.2	-5.3	14.7	5.3	13.0	-1.2	9.0	-1.0%
Cn1cccc1CC(=O)NNC(=O)Nc1ccc(Cl)cc1	33.6	-1.8	0.2	5.0	-2.2	3.5	2.5	0.4	2.2	10.6%
CC(=O)Nc1cc2c3c(c1)CC(=O)N3CCC2	3.3	-1.7	0.4	-2.1	-0.5	3.2	8.8	-0.6	4.0	-2.1%
O=C(CSc1cccc[n+]1[O-])c1ccc(Cl)s1	45.5	-1.2	-1.1	-0.6	-28.4	-5.3	-6.2	-1.5	0.4	1.1%
CC(C)Cn1cnc2c1c(=O)[nH]c(=O)n2Cc1ccccc1	-11.7	·	0.0	-1.8	-13.4	3.1	9.6	0.4	?	-5.5%
COc1ccccc1CCC(=O)NNC(=O)c1ccncc1	1.0	-2.4	-1.3	0.4	10.4	3.3	-1.1	-2.6	-3.0	-3.2%
CC(C)(C)S(=O)(=O)Cc1nc(-c2ccc(Cl)c(Cl)c2)cs1	-3.1	0.3	-0.1	3.7	-4.9	-15.2*	4.5*	2.3*	3.1	-21.7%
COc1ccc(-c2cc(C3CCN(c4cc(Cl)nc(N)n4)CC3)[nH]n2)cc1	36.9	12.7	1.7	·	22.6	·	·	·	?	1.9%
CC(NC(=O)OC(C)(C)C)C(=O)Oc1cc2oc(=O)cc(-c3ccccc3)c2cc1Cl (stereo unspecified)	38.2	·	-0.1	·	1.1	·	·	·	0.9	?
CCCCC[C@H]1CN(C2CCCCC2)C(=O)[C@@H]1CC(=O)NCc1ccc(OC)cc1	-8.6	-0.8	-0.2	1.5	9.0	-22.4	-40.2	11.4	0.4	·
O=C(CCN1C(=O)/C(=C/c2cccs2)SC1=S)Nc1ccc(C(=O)O)cc1	-6.3	-2.0	0.9	1.4	-5.0	-10.9	-6.9	-0.1	-2.3	·
